High-throughput results: PubChem, National Center for Advancing Translational Sciences (NCATS)
Pin1 inhibitor: human Pin1 inhibition. Q13526. Pin1 FP peptide displacement, HiFluor488, 10 min. Potency, µM (highest dose often 115 µM), for inactives: at the top dose activity, negative = inhibition, usual class: inhibitors. 390,000 tested, 0.009% active. AID 504891; active = well fitted inhibition curve with a large enough effect in the polarisation, with a control signal flat, not every such curve was filed as active; inconclusive = small, poorly fitted or top-dose-only effect, or effect the other way, or a change in a side signal; inactive = no such curve, though single readings can be large or run the other way; the % refers to the polarisation; also: potency is read from the fitted curve at half-maximal effect; % is scaled to controls: 0 for no effect and ±100 for the full control effect
Target sequence (Q13526 whole entry, looked up): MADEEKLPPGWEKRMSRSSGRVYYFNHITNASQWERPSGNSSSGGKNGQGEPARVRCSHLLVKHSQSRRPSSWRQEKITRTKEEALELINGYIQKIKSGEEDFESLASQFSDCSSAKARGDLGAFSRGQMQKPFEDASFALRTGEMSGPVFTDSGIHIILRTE
TRHR ag: agonists of human TRH receptor | TRHR cells, calcium flux fluo-8, FDSS agonist mode | activation, % at 2 µM | 360,000 tested, 0.18% active | AID 493084; in the data active = activation above about 30%; also: 0% is about no effect
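Read-out: compound-evoked intracellular calcium rise in TRHR cells, fluo-8 dye, kinetic FDSS fluorescence at 1 s/cycle following a 10-cycle baseline. Cells cultured overnight before dye loading (30 min–1.5 h, RT).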
TrxR1 inh: inhibitors of rat thioredoxin reductase 1; recombinant rTrxR1, NADPH fluorescence consumption, selenite substrate; Potency, µM (titrated, usually from 114 µM), for the others: at the top dose activity change, negative = inhibition, hits mostly inhibitors; 390,000 tested, 1% active; also: potency is read from the fitted curve at half-maximal effect; % is scaled to controls: 0 for no effect and ±100 for the full control effect; nearly all actives have a fitted effect of over 65% in size
Target sequence (O89049 whole entry, looked up): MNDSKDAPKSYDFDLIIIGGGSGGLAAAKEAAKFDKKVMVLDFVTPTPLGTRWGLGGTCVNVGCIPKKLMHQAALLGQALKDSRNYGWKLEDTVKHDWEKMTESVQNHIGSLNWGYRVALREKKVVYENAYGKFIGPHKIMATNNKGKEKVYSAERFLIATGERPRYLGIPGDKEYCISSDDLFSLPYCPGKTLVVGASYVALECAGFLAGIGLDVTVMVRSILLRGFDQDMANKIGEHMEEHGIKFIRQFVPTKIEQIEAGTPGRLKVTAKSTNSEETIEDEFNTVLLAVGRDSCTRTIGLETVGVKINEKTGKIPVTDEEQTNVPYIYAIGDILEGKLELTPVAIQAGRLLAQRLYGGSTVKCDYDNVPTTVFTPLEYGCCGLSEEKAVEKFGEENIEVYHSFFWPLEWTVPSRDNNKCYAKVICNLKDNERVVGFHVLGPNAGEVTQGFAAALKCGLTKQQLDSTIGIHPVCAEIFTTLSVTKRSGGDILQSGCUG
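Rat TrxR1 (90 nM in the dispensed reagent) was pre-reduced with 400 uM NADPH for 5 min at room temperature, then incubated with compound for 15 min. After 400 uM selenite was added, NADPH fluorescence (Ex 340/Em 450 nm) was followed for 8 min.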
D2 antag: antagonists of human D2 dopamine receptor | inhibition, % at 10 µM | P14416 | 340,000 tested, 2% active | HEK293 TREx D2 cells, calcium flux, dopamine EC80; in the data active = inhibition above about 30%; also: 0% is about no effect
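Antagonism is scored as inhibition of an EC80 dopamine-evoked calcium signal in a force-coupled, tetracycline-inducible HEK293 T-REx D2 line, with compound present 180 s before agonist.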
D2 ag: D2 dopamine receptor (human) agonism | HEK293 T-REx D2 cells, calcium flux agonist mode | activation, % at 2 µM | 340,000 tested, 0.53% active | AID 485358;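 active = activation over 3 SD above normal in the single-dose calcium agonist read, cut at about 30% in these data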; also: 0% is about no effect
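HEK293 Trex D2 cells, tetracycline-induced, o/n 30 C 5% CO2; no-wash Ca dye, RT 30–90 min; 10-cycle baseline, 23 nl cpd added, kinetic Ca read 180 s; agonist hits = positive Ca response.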
IDH1 R132H inh: human IDH1 R132H inhibition; O75874; IDH1-R132H enzyme, NADPH consumption, diaphorase/resazurin fluorescence; Potency, µM (top dose mostly 76.6 µM), for inactives: top-dose activity change, negative = inhibition, usual class: inhibitors; 390,000 tested, 0.093% active; AID 602179; also: potency is read from the fitted curve at half-maximal effect; % is scaled to controls: 0 for no effect and ±100 for the full control effect; nearly all actives have a fitted effect of over 65% in size
Target sequence (O75874 whole entry R132H, stated change not applied): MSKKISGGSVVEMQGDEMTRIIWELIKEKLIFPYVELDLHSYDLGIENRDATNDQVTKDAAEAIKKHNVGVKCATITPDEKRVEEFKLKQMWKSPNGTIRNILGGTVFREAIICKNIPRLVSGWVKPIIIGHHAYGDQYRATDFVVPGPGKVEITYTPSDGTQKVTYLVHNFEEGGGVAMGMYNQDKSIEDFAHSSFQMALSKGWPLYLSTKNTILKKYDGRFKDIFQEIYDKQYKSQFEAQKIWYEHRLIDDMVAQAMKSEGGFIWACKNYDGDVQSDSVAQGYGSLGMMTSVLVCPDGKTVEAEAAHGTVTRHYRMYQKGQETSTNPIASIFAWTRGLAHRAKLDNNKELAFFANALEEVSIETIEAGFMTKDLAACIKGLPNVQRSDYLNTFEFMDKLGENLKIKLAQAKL
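IDH1-R132H (0.5 ug/mL) preincubated 30 min with compound, then NADPH (0.016 mM) and alpha-KG (2 mM) added; 80 min at RT, pH 7.5. Remaining NADPH coupled via diaphorase/resazurin to fluorescence (540/590 nm); concentration-response curves normalized to no-enzyme control.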
TrxR1 substrate: substrates of rat thioredoxin reductase 1; O89049; purified TrxR1 substrate turnover, NADPH consumption readout; Potency, µM (titrated, usually from 114 µM), inactives show top-dose activity change, negative = substrate turnover; 390,000 tested, 0.01% active; also: potency is read from the fitted curve at half-maximal effect; % is scaled to controls: 0 for no effect and ±100 for the full control effect; nearly all actives have a fitted effect of over 50% in size
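Rat TrxR1, dispensed at 90 nM, was prereduced with 400 uM NADPH (final) for 5 min at ~22 deg C, then incubated with compound 15 min before 400 uM selenite. A first-read NADPH fluorescence drop versus no-compound background flagged substrates.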
TRHR enhancer: TRH receptor (human) allosteric enhancement | P34981 | TRHR cells, fluo-8 calcium fluorescence, EC20 TRH enhancement | enhancement, % at 2 µM | 360,000 tested, 0.66% active | AID 493056; in the data active = enhancement above about 30%; also: 0% is about no effect
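TRHR-expressing cells loaded with fluo-8 calcium dye were read kinetically (ex 480/em 530) during compound addition, then stimulated with an EC20 of TRH (10 nM final). Enhancement of the Gq-mediated intracellular calcium response was scored.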
* marks the source's active call; other numbers are inactive results; u = inconclusive; x = not tested or not shown; [ ] = another dose, or the depositor's remark. Unless noted, calls follow the shape of the dose curve; as a rule, active = well fitted inhibition curve with a large enough effect; inconclusive = small, poorly fitted or top-dose-only effect; inactive = no such curve, though single readings can be large or run the other way. A portion of the library (hit frequency here may not be typical).

SMILES | Pin1 inhibitor | TRHR ag | TrxR1 inh | D2 antag | D2 ag | IDH1 R132H inh | TrxR1 substrate | TRHR enhancer
O=c1[nH]c(-c2ccccn2)cc2ccccc12 | u | -0.3 | u | 29 | 0.5 | 4% | 193%[activator] | -2
Cc1ncccc1C(=O)N1CCCC(CNC(=O)C2(c3ccc(Cl)cc3)CC2)C1 (stereo unspecified) | 1% | -1.1 | 7% | 12 | 1.3 | 14% | 3% | -6
Cc1ccc(NC(=O)Nc2cn(C)c(=O)c3ccccc23)c(Cl)c1 | 0% | -0.5 | 7% | x | -1.0 | -16% | 6% | 1
CC1=C(C(=O)Nc2ccccc2)C(c2cccnc2)n2ncnc2N1 (stereo unspecified) | -1% | 1.0 | 12% | -7 | 1.1 | -1% | 3% | -1
CCOC(=O)c1sc2ccccc2c1S(=O)(=O)Nc1cccc(C(F)(F)F)c1 | u | 0.0 | -2%[57.1 µM] | x | 0.8 | -3% | -10%[57.1 µM] | -2
OC(CN1CCN(c2ccccn2)CC1)Cn1c2ccccc2c2ccccc21 (stereo unspecified) | u | 1.8 | 28% | 2 | 2.1 | 10% | -3% | 1
Cc1ccc2c(c1)N(C(=O)CCC(=O)NCCCN1CCN(C)CC1)CC(C)O2 (stereo unspecified) | -2% | 0.0 | 6%[57.1 µM] | -14 | 5.2 | 6% | 6%[57.1 µM] | 5
FC(F)(F)c1ccccc1NC(=S)N1CCCC1 | 0% | -1.6 | -7%[57.1 µM] | 8 | -0.4 | -7% | -5%[57.1 µM] | -4
CCN(CC)C(=O)CSC(Nc1cccc(F)c1)=C(C#N)C#N | u | 1.6 | 1%[57.1 µM] | 6 | 1.3 | 2% | 1%[57.1 µM] | 1
Cc1cc(C2(c3ccc(O)c(C)c3)C(=O)Nc3ccccc32)ccc1O | 1% | -1.0 | 21%[57.1 µM] | -13 | 5.2 | 5% | -12% | 10

A draw from above in order of count of non-hydrogen atoms, low to high.
SMILES | Pin1 inhibitor | TRHR ag | TrxR1 inh | D2 antag | D2 ag | IDH1 R132H inh | TrxR1 substrate | TRHR enhancer
Cc1ccc(NC(=O)Nc2cn(C)c(=O)c3ccccc23)c(Cl)c1 | 0% | -0.5 | 7% | x | -1.0 | -16% | 6% | 1
CCOC(=O)c1sc2ccccc2c1S(=O)(=O)Nc1cccc(C(F)(F)F)c1 | u | 0.0 | -2%[57.1 µM] | x | 0.8 | -3% | -10%[57.1 µM] | -2
Cc1ncccc1C(=O)N1CCCC(CNC(=O)C2(c3ccc(Cl)cc3)CC2)C1 (stereo unspecified) | 1% | -1.1 | 7% | 12 | 1.3 | 14% | 3% | -6

(list continues)
SMILES | Pin1 inhibitor | TRHR ag | TrxR1 inh | D2 antag | D2 ag | IDH1 R132H inh | TrxR1 substrate | TRHR enhancer
Cc1c(NC(=O)/C(C#N)=C/c2ccc(-c3ccc(Cl)cc3)o2)c(=O)n(-c2ccccc2)n1C | 28% | -0.3 | -5% | -6 | -2.8 | -1% | -6% | 3
COc1ccc(C(=O)O)cc1S(=O)(=O)Nc1cccc(C)c1 | -8% | 1.1 | 24%[57.1 µM] | -5 | -0.4 | -6% | 13%[57.1 µM] | -6
Cc1ccc(C(=O)O)cc1S(=O)(=O)Nc1ccccc1C(=O)NC1CC1 | -12% | 0.3 | 4% | 0 | 0.6 | 5% | 1% | 6
COc1cccc(OC)c1C(=O)Nc1ccccc1Sc1ccccc1 | 0% | x | 17% | x | x | -2% | 3% | x
COc1ccc(OCC(O)CN2CCN(c3ncccn3)CC2)cc1 (stereo unspecified) | -4% | 0.7 | -9% | 62* | 70* | 7% | -7% | 7
Cn1c(SCc2cccc(F)c2)nnc1-c1ccncc1 | 5% | 0.8 | 9% | -2 | -0.6 | 0% | 7% | 0
Cc1ccccc1NC(=O)c1cc(S(=O)(=O)Nc2cccc(C(=O)O)c2)ccc1Cl | -8% | -0.3 | 15% | -11 | 0.2 | -2% | 7% | 0
COc1ccc(C2/C(=C(/O)c3ccc(F)cc3)C(=O)C(=O)N2CCCN2CCOCC2)cc1OC (stereo unspecified) | 2% | 2.0 | 13% | -13 | -1.3 | -5% | 1% | -3
CC(C)(C)C(=O)[C@@H]1[C@@H]2C(=O)N(c3ccc4c(c3)OCCO4)C(=O)[C@@H]2C2c3ccccc3C=CN21 (stereo partly specified) | 0% | 1.4 | -5%[57.1 µM] | 4 | 0.8 | 1% | -10%[57.1 µM] | 0
COc1cc(S(=O)(=O)NCc2ccc3c(c2)OCO3)c(OC)cc1C | 0% | -0.1 | 10%[57.1 µM] | -8 | 0.0 | 10% | 4%[57.1 µM] | 1
CCc1ccc(NCc2cc3c(C)nn(-c4ccccc4)c3[nH]c2=O)cc1 | 1% | 2.7 | 7% | -8 | 2.4 | -1% | -8% | 4
COc1cc2c(cc1OC)-c1cc(N3CCCCCC3)nc(=O)n1CC2 | 1% | -0.1 | 0% | -12 | 1.0 | 1% | 21% | 0
Cc1ccc(NC(=O)c2oc3ccc(Br)cc3c2C)cc1S(=O)(=O)N1CCOCC1 | u | x | 13% | x | x | 3% | 13% | x
C[C@H](NC(=O)c1nc[nH]c1C(=O)N(C)Cc1ccccc1)C(=O)OC(C)(C)C | -19% | -0.5 | 10% | 0 | 0.0 | -1% | 6% | -3
COc1cccc(Cn2cc(C)cc(NC(=O)NCc3ccccc3)c2=O)c1 | 16% | -0.9 | 10% | -3 | -1.2 | -5% | 16% | 6
O=C(/C=C/NNC(=O)c1cccc(Br)c1)c1cccc(Br)c1 | 42%[activator] | -0.1 | -16% | -17 | 0.4 | 0% | 2% | 3
COc1ccc(OC)c(/C=C(\C#N)c2nc(-c3ccc(F)cc3)cs2)c1 | u | 7.0 | 30%[57.1 µM] | x | -0.2 | 8% | 1%[57.1 µM] | 8
CCC(Cn1nnc2ccccc2c1=O)NC(=O)Nc1ccc(C)cc1 (stereo unspecified) | -1% | -0.9 | -8% | x | -0.4 | -6% | 20% | -12
COC(=O)c1scc(-c2ccc(C)cc2)c1S(=O)(=O)Nc1cccc(C(F)(F)F)c1 | 13% | 0.4 | 15%[57.1 µM] | x | 0.7 | -21% | -7%[57.1 µM] | 2
COC(=O)C1=NN(c2ccc(Cl)cc2)C2C(=O)N(c3ccccc3OC)C(=O)C12 (stereo unspecified) | 25% | 0.3 | u | -1 | 2.8 | 1% | 33%[activator] | 1
CCC1CCCCN1CCCNC(=O)CCC(=O)N1CC(C)Oc2ccccc21 (stereo unspecified) | 1% | 0.0 | 37%[activator][57.1 µM] | -15 | -0.3 | 13% | 8%[57.1 µM] | -1
CC(=O)Cc1nsc(NC(=O)c2c(-c3ccccc3Cl)noc2C)n1 | 2% | 0.7 | -6% | -4 | 0.2 | 4% | 4% | 0
O=C(Nc1nnc(-c2ccccn2)o1)c1cccc(Cl)c1 | -5% | -0.4 | 7%[57.1 µM] | -2 | -0.2 | -3% | -13%[57.1 µM] | 4
CC(=O)Nc1nnc(CCN2CCCCC2)s1 | -12% | -0.9 | 25% | -10 | 1.3 | -4% | 4% | -7
CCOC(=O)C1CCCN(C(=S)NC(=O)/C=C/c2ccc(F)cc2)C1 (stereo unspecified) | -6% | -1.9 | 13% | -7 | 0.8 | 1% | -6% | -7
CC1CCN(CCCNC(=O)CCCNC(=O)Cn2cnc3sc4c(c3c2=O)CCCC4)CC1 | -6% | -0.5 | 22% | -24 | -0.4 | 5% | 8% | -2
COc1cccc(/C=C/C(=O)OCC(=O)c2ccc3c(c2)NC(=O)CO3)c1OC | 4% | -1.4 | 26% | -30 | -1.3 | -4% | 23% | 3
Cc1c(N=C2N=C(NC(=O)c3cccs3)c3ccccc32)c(=O)n(-c2ccccc2)n1C | u | 16 | 2%[57.1 µM] | 9 | 9.3 | 1% | -5%[57.1 µM] | -6
Cc1ccc(C2C=C(c3ccc(Cl)cc3)Nc3nc(NS(=O)(=O)c4ccccc4)nn32)cc1 (stereo unspecified) | u | -0.3 | u | x | -0.3 | 0% | 14% | -19
O=C(CSc1cn(CCNC(=O)c2ccccc2F)c2ccccc12)Nc1ccccc1F | -4% | -2.2 | 12% | x | 0.9 | -9% | 8% | -8
NS(=O)(=O)c1cccc(NS(=O)(=O)c2cccc(C(F)(F)F)c2)c1 | 2% | 0.2 | 19%[57.1 µM] | -18 | 0.0 | -1% | 7%[57.1 µM] | -1
COC(=O)N/N=C1/C/C(=N\NC(=O)OC)c2ccccc21 | 2% | 0.3 | -12% | -19 | 0.9 | 1% | -10% | 0
CC1CN(C(=S)Nc2ccccc2C(F)(F)F)CC(C)O1 (stereo unspecified) | 1% | 0.0 | 4% | x | x | -1% | 1% | 4
Cc1ccc(C2C=C(c3ccccc3)Nc3nc(NS(=O)(=O)c4ccccc4)nn32)cc1 (stereo unspecified) | u | 13 | -32% | x | 2.5 | u | 35%[activator] | 9
CC1CCCCC1NC(=O)c1c(O)nc2ccccn2c1=O (stereo unspecified) | -2% | -0.5 | 4%[57.1 µM] | x | x | -9% | 5%[57.1 µM] | -2
O=C(Nc1nnc(CCN2CCCCC2)s1)c1ccc(Br)cc1 | -4% | 0.2 | 6%[57.1 µM] | x | x | 11% | 6%[57.1 µM] | -3
CC1CCN(S(=O)(=O)c2cn(CC(=O)N3CCN(c4cccc(C(F)(F)F)c4)CC3)cn2)CC1 | -1% | -0.7 | -8% | -4 | 0.7 | 0% | -9% | -5
COc1cccc2cc(C(=O)CS(=O)(=O)c3ccc(C(C)(C)C)cc3)c(=O)oc12 | 6% | 1.2 | 3% | 21 | 0.4 | 3% | 0% | -2
CCCCOC(=O)c1ccc(NC(=O)/C(C#N)=C/c2ccc(-c3ccccc3)o2)cc1 | u | 47* | -4% | x | 19 | -15% | -12% | 7
CC(=O)Nc1ccc(S(=O)(=O)Nc2nc3ccccc3nc2Nc2ccc(O)c(C(=O)O)c2)cc1 | u | 6.9 | -6% | -2 | 2.1 | -7% | -12% | -4
COC(=O)C1=NN(c2ccc(OC)cc2)C2C(=O)N(c3ccccc3OC)C(=O)C12 (stereo unspecified) | -2% | -0.4 | -1% | -3 | 1.4 | 0% | 3%[57.1 µM] | 21
C/C(=N\NC(=O)c1ccc(NS(=O)(=O)c2cccs2)cc1)c1ccncc1 | -2% | 0.1 | 8%[57.1 µM] | -7 | -0.1 | -2% | -4%[57.1 µM] | -2
CC(Sc1nc2ccccc2c(=O)n1CC1CCCO1)C(=O)Nc1ccc(S(N)(=O)=O)cc1 (stereo unspecified) | 4% | -0.5 | -15% | -16 | 1.8 | 3% | -10% | 0
